Source: PubChem BioAssay (several laboratories)
ALR inh – human ALR oxidase inhibition via reduced H2O2; purified ALR, DTT oxidation, H2O2 HRP-luminol luminescence; inhibition, % (test concentration not listed); 290,000 compounds, 3.8% hits; AID 485317;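 active = mean and each replicate at 75% or more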;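 note: stock transfer was 7.5 nL into about 7.5 µL; 0% = neutral wells and 100% = wells with inactivated enzyme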
Target sequence (P55789 whole entry, looked up): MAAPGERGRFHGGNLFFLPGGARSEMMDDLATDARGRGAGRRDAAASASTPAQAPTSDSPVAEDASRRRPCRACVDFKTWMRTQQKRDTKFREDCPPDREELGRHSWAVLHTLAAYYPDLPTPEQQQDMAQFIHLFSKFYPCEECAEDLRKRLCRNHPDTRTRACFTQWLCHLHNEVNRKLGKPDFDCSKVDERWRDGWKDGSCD
Ecoli growth – inhibitors of Escherichia coli growth; OD600, 23 h; active compounds read low; OD600 absorbance (concentration not given with the values); 330,000 compounds, 0.21% hits; AID 1053175;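 active = OD600 absorbance below the run mean of sample wells minus 3.6 SD, in any replicate, cut at about 0.56 in these data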;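 note: stock transfer was 300 nL into about 60 µL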
B2AR ag – activates human beta-2 adrenergic receptor causing internalization; P07550; Am2.2-beta2AR cells, FAP receptor internalization, flow cytometry; reference of the scale not given here; response, % (test concentration not listed); 340,000 compounds, 0.43% hits; AID 504454;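 active = response above a set limit, near 3 SD of response in nonfluorescent compounds, cut at about 42% in these data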;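 note: stock transfer was 100 nL into about 11 µL; a reference agonist was the positive control; negative values mostly stem from fluorescent compounds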
Target sequence (P07550 whole entry, looked up): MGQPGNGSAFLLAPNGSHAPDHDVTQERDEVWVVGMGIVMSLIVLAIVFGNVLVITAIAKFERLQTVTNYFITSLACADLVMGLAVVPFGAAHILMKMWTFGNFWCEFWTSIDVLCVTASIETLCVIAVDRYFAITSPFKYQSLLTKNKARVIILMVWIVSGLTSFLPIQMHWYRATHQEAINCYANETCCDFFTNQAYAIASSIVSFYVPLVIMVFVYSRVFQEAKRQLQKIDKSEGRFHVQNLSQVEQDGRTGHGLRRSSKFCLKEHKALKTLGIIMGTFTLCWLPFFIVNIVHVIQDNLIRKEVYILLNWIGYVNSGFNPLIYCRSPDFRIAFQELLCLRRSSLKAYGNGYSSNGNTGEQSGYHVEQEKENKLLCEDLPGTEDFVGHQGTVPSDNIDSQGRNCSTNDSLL
FGF22 binding – binders of recombinant human FGF22 by thermal shift | SYPRO orange fluorescence; percent of sucrose octasulfate shift, DMSO zero | calls only at 9.99 µM | 340,000 compounds, 1.5% hits | AID 651658;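 active = melting point raised past a set limit in the mean and every replicate; three in four hits are not shown here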
Target sequence (Q9HCT0 whole entry, looked up): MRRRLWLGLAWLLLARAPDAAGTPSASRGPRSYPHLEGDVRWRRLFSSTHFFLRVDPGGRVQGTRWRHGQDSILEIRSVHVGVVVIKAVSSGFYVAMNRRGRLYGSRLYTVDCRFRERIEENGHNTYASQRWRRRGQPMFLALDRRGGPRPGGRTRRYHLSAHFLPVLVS
LANA-H2A inh – blocks KSHV LANA binding to histone H2A/H2B | Q9QR71 | cell-free LANA-H2A/H2B peptide, fluorescence polarization | inhibition, % (test concentration not listed) | 320,000 compounds, 0.6% hits | AID 2629; in the data active = inhibition mostly above about 10%, no sharp cut-off; inactive = mostly below about 6.7%;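 note: stock transfer was 7.5 nL into about 10 µL; 0% = median of vehicle wells and 100% = median of positive control wells; one replicate is shown; the record names a cut of 25% in any replicate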
HNF4A DNA FP – change in binding of human HNF4 alpha to DNA | activity change, % at 10 µM | HNF4a-FITC DNA binding, fluorescence polarization, 1 h | 360,000 compounds, 0.3% hits | AID 1224865; in the data active = activity change above about 30%, passing the limit was not always enough;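 note: controls were the assay level and a saturating level of protein; the project sought stronger binding though the title names inhibitors; some compounds called inactive have numbers as strong as hits; positive values seem to mean higher polarization but the record does not say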
UCH37 inh – inhibitors of human deubiquitinating enzyme UCH37; Q9Y5K5; inhibition, % (concentration not given with the values); 330,000 compounds, 0.33% hits; purified proteasome/UCH37, Ub-AMC cleavage fluorescence; AID 588478;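 active = mean of two replicates above 20%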;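 note: 0% = compound-free wells with enzyme and 100% = wells lacking proteasome; stock transfer was 100 nL into about 20 µL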
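Material: human UCH37 enzyme supplied as purified proteasome complex. Measure: % inhibition of Ub-AMC cleavage fluorescence. Medium: pH 7.4 Tris-HCl (50 mM) with ovalbumin, ATP-MgCl2, DTT. Times: 30 min preincubation with enzyme, 25 min cleavage at room temperature. Detection: AMC fluorescence intensity at 355/460 nm.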
The depositor's hits bear a star; i = inactive; nt = no result given; + = active, no number. Only part of the results is shown, so the mix of outcomes need not match the whole.

ALR inh	Ecoli growth	B2AR ag	FGF22 binding	LANA-H2A inh	HNF4A DNA FP	UCH37 inh	canonical_smiles
4	0.7	3	nt	0.5	-1.1	i	COC(=O)c1c(N)n(CCCN2CCOCC2)c2nc3ccccc3nc12
10	0.76	-10	nt	3.0	-0.7	5.3	CSc1nncc(-c2ccc(F)cc2)n1
-15	0.71	7	i	-0.7	0.0	0.7	CCCOC(=O)CCCCC1SCC(NC(=O)OC)C1NC(=O)OC (centres undefined)
-2	0.67	27	i	0.3	0.8	0.0	CCOC(=O)CNC(=S)N(Cc1ccco1)Cc1ccccc1Cl
-1	0.7	106*	i	-3.0	-0.8	1.2	CC1=NNC(=O)/C1=C\c1cn(-c2ccccc2)nc1-c1cccs1
2	0.69	-4	i	-0.8	-5.6	3.4	Cc1ccc(N(CC(=O)NC2CCCCC2C)S(=O)(=O)c2c(C)nn(C)c2C)cc1 (centres undefined)
2	0.72	1	nt	0.0	-0.6	3.1	COc1ccc(C(NC(=O)C(C)(C)C)NC(=O)C(C)(C)C)cc1
nt	0.62	-7	i	-3.8	3.8	0.8	O=C(/C=C/c1ccccc1[N+](=O)[O-])N1CCOCC1
1	0.72	-1	i	-1.0	3.4	1.3	CCOc1c(N2CC(C)OC(C)C2)c(=O)c1=O (centres undefined)
-5	0.68	-4	nt	-0.7	-2.5	-0.1	c1ccc(Oc2cccc(OCCn3cncn3)c2)cc1
nt	0.69	-2	i	-103	0.0	1.7	Cc1cc(C)c(C)c(S(=O)(=O)N2CCC(C(=O)N3CCCC3)CC2)c1C
-7	0.7	-3	i	1.2	0.2	2.1	Cc1ccc(C)c(NC(=O)CCOc2ccccc2)c1
-2	0.76	-30	nt	5.7	-8.2	2.4	CC(C)(C)C(=O)Nc1cc(C(F)(F)F)ccc1N1CCOCC1
-12	0.68	2	i	3.9	-0.7	0.4	O=C(CN1C(=O)c2ccccc2S1(=O)=O)NCCSCc1ccccc1Cl
-4	0.75	6	i	-4.8	-1.3	2.5	COc1ccc(CNC(=O)CCC(=O)n2ncc3cc(C)ccc32)cc1
-6	0.64	2	i	2.9	-1.6	6.2	CCc1[nH]nc(C(=O)N2CCCC(CNS(=O)(=O)c3cccs3)C2)c1C (centres undefined)
10	0.64	-1	i	5.5	0.5	5.9	CCc1nnc(N2C(=N)SCC2=O)s1
-6	0.66	-5	i	-1.6	5.3	3.9	O=C(Cc1ccccc1)NCC(=O)N1CCc2ccccc2C1
-11	nt	3	i	-3.0	-0.2	nt	N/C(=N\OC(=O)c1ccc([N+](=O)[O-])cc1)c1ccc(Br)cc1
0	0.7	6	i	3.1	3.5	-0.1	Cc1cccc(NC(=O)N2CCC(NC(=O)C3CCCCC3)CC2)c1
4	0.72	5	nt	0.0	1.2	1.1	N#CCc1c(C#N)c(N)nc(N2CCN(S(=O)(=O)c3ccccc3)CC2)c1C#N
1	0.66	-8	i	1.5	2.5	3.9	CCN1CCc2c(sc(NC(=O)Cc3ccccc3)c2C(=O)OC)C1
-6	0.74	0	nt	-5.6	-0.5	-6.0	OC1C2CN3CCN(C2)CC1(Cc1ccccc1)C3 (centres undefined)
-4	0.68	-2	i	-4.3	1.0	-0.9	CC1CCCN(C(=O)COC(=O)/C=C/c2ccc(C(F)(F)F)cc2)C1 (centres undefined)
32	0.65	-7	nt	-44	1.6	-0.7	Cc1ccc(O)c(N)c1
-2	0.71	-14	i	5.1	-3.0	3.9	C=CCn1c(CCNC(=O)c2ccccc2F)nnc1SCc1nc2ccccc2c(=O)[nH]1
50	0.68	-3	i	4.6	-0.5	-0.4	CC(=O)c1ccc(N2CCN(C(=O)c3cc4c(s3)CCCC4)CC2)cc1
8	0.68	1	nt	0.3	1.2	-1.2	CC(=O)N1N=C(c2ccco2)CC1c1ccc(C)cc1 (centres undefined)
-20	0.6	-10	i	3.4	-2.7	3.3	CCOc1ccc(NC(=O)CN(C)C(=O)C2=COCCO2)cc1OCC
nt	nt	7	i	nt	17	nt	COc1ccc(OC)c2nc3c(C(=O)NCCN(C)C)cccc3nc12
-3	0.72	6	i	4.3	1.7	4.1	O=C1CCCN1CCCNS(=O)(=O)c1ccc(Br)cc1
1	0.69	8	i	-6.9	3.6	0.9	CC(=O)Nc1ccc(S(=O)(=O)Oc2ccccc2N2C(=O)C3C4CCC(C4)C3C2=O)cc1 (centres undefined)

Records above that bear a hit mark in B2AR ag.
ALR inh	Ecoli growth	B2AR ag	FGF22 binding	LANA-H2A inh	HNF4A DNA FP	UCH37 inh	canonical_smiles
-1	0.7	106*	i	-3.0	-0.8	1.2	CC1=NNC(=O)/C1=C\c1cn(-c2ccccc2)nc1-c1cccs1

Reformatted tab-delimited: part of the list above
SMILES	ALR inh	Ecoli growth	B2AR ag	FGF22 binding	LANA-H2A inh	HNF4A DNA FP	UCH37 inh
Cc1ccc(O)c(N)c1	32	0.65	-7	nt	-44	1.6	-0.7
C=CCn1c(CCNC(=O)c2ccccc2F)nnc1SCc1nc2ccccc2c(=O)[nH]1	-2	0.71	-14	i	5.1	-3.0	3.9
CC(=O)c1ccc(N2CCN(C(=O)c3cc4c(s3)CCCC4)CC2)cc1	50	0.68	-3	i	4.6	-0.5	-0.4
CC(=O)N1N=C(c2ccco2)CC1c1ccc(C)cc1 (centres undefined)	8	0.68	1	nt	0.3	1.2	-1.2
CCOc1ccc(NC(=O)CN(C)C(=O)C2=COCCO2)cc1OCC	-20	0.6	-10	i	3.4	-2.7	3.3
COc1ccc(OC)c2nc3c(C(=O)NCCN(C)C)cccc3nc12	nt	nt	7	i	nt	17	nt

More records follow.
ALR inh	Ecoli growth	B2AR ag	FGF22 binding	LANA-H2A inh	HNF4A DNA FP	UCH37 inh	canonical_smiles
-2	0.64	3	i	-1.5	-1.6	3.9	C[C@H](N)C(=O)OCc1ccc([N+](=O)[O-])cc1
-11	0.67	-1	i	5.3	6.9	0.1	O=C(Cc1c(F)cccc1Cl)OCC(=O)c1ccc[nH]1
nt	nt	-3	i	nt	-2.5	nt	COC(=O)c1nccnc1N
4	0.67	0	i	1.3	-1.2	-41	Cc1cccn2c(=O)c3cc(C(=O)NCCc4ccccc4)c(=N)n(Cc4ccco4)c3nc12
31	0.7	5	nt	-0.6	-4.8	7.0	O=C(Nc1sc2c(c1C(=O)O)CCCC2)c1cccs1
3	nt	-10	i	4.1	0.5	2.5	C[C@H](CO)N1C[C@H](C)[C@@H](CN(C)C(=O)NC2CCCCC2)Oc2ccc(NC(=O)NC3CCCCC3)cc2C1=O
-2	0.7	-6	nt	3.9	0.8	1.7	Cc1onc(-c2ccccc2)c1C(=O)NC(C)C1CCCO1 (centres undefined)
-1	0.71	-9	nt	-1.2	1.0	0.3	COCc1nnc(NC(=O)c2ccc(S(=O)(=O)N(C)C3CCCCC3)cc2)o1
-8	0.71	5	nt	4.0	-2.2	-0.6	COC(=O)CC(NS(=O)(=O)c1cccs1)c1ccccc1Cl (centres undefined)
8	0.66	3	i	0.8	-0.2	2.3	COC(=O)c1ccccc1NC(=O)N1CCN(c2ccccc2F)CC1
nt	0.67	-3	nt	-4.1	-0.8	5.7	Cc1cnc(Sc2ncccc2[N+](=O)[O-])nc1
0	0.67	7	i	-5.0	2.2	1.3	CC(=O)N/C(=C\c1ccccc1)C(=O)OCc1cc(C)ccc1C
-7	nt	-3	i	7.4	-4.0	nt	O=[N+]([O-])c1ccccc1N/N=C/c1ccccc1
-3	0.68	nt	i	0.5	nt	2.3	CC(C)Cn1c(SCC(=O)N2CCCc3ccccc32)nc2ccccc2c1=O
-2	0.64	-1	i	0.4	0.7	0.6	Cc1cc(C(=O)c2ccc3ccccc3c2)c(C)o1
nt	0.7	-76	i	-3.4	3.5	6.4	O=C(CCCN=C1NS(=O)(=O)c2ccccc21)OCc1cc([N+](=O)[O-])cc2c1OCOC2
-1	0.76	3	nt	-5.6	4.5	-0.6	Cc1ccc(Nc2nc3c([nH]2)c(=O)n(C)c(=O)n3C)cc1
2	nt	3	i	2.6	2.0	nt	Cc1ccc(S(=O)(=O)N(C)c2ccc(OCC(=O)OCc3ccc(C#N)cc3)cc2)cc1
-9	0.68	-20	i	2.3	0.6	3.2	Cc1c(C(=O)N2CC(C)OC(C)C2)[nH]c2ccc(Br)cc12 (centres undefined)
51	0.67	-1	i	7.9	5.8	5.3	COc1nccnc1NS(=O)(=O)c1ccc(NC(=S)NC(=O)c2ccc(F)c(F)c2)cc1
-6	0.67	2	i	-1.5	2.1	2.5	CCOC(=O)Nc1c(Cl)n(C)c(=O)n(C)c1=O
-16	0.68	2	+	2.6	-0.4	3.1	CCc1nnc(NC(=O)CN2CCN(Cc3ccc(C)cc3)CC2)s1
-1	0.72	0	i	-8.4	0.7	2.2	CCC1CCCCN1C(=O)c1cccc(S(=O)(=O)Nc2cc(C(F)(F)F)ccc2Cl)c1 (centres undefined)
2	0.73	7	i	-1.8	0.2	3.1	CC(=O)c1sc(NC(=O)c2cc(-c3ccccc3)nn2-c2ccccc2)nc1C
nt	0.7	2	i	-1.1	-1.7	1.1	CN(Cc1ccccn1)Cc1nc(Cc2ccccc2Cl)no1
nt	0.71	-2	i	-2.1	0.3	4.3	Cn1c(=O)c2c(nc(NCCOc3ccc(C(C)(C)C)cc3)n2C)n(C)c1=O
20	0.77	-4	nt	-3.5	-2.6	1.2	COc1nnc(-c2ccc(N3CCOCC3)c(NC(=O)c3ccco3)c2)c2ccccc12
-1	0.68	3	i	-0.6	0.6	2.3	Cc1ccc(C)c(CN2C(=O)CSc3ccc(C(=O)N4CCCC4)cc32)c1
2	0.62	8	i	3.8	-7.5	1.4	Cn1nc(C(F)(F)F)c2cc(C(=O)Nc3ccc(F)c(Cl)c3)sc21
-3	0.76	5	i	1.1	3.6	8.4	O=C(O)[C@@H](c1ccccc1)N1Cc2ccccc2C1=O
97*	0.7	-2	nt	-0.7	-0.1	0.2	Cc1ccc(NC(=S)NNC(=O)c2cn(C)nc2C)cc1
8	0.69	1	nt	-2.4	0.7	5.2	O=C1NC(=O)/C(=C\c2ccc(Cl)nc2)S1
-8	0.69	-8	i	1.0	-1.7	-33	COc1cc2[nH]c(C(=O)NCC3CCCO3)cc2c(OC)c1OC (centres undefined)
nt	0.64	-3	i	2.8	-2.1	-1.3	O=C(OCc1csc(-c2ccccc2)n1)c1ccccc1O
-7	0.7	nt	nt	1.3	nt	-0.7	COc1cccc(CN2CCNC(=O)C2CC(=O)N(C)CCc2ccccn2)c1OC (centres undefined)
-8	0.72	9	nt	-2.2	0.6	-1.4	Cc1ccc(NC(=O)c2ccccc2NC(=O)CCC(=O)O)cc1
-6	0.68	-9	i	0.2	-0.1	-0.9	CCOCCCNC(=O)C(c1ccc(Cl)cc1)N(Cc1ccc2c(c1)OCO2)C(=O)CNC(C)=O (centres undefined)
-1	0.65	22	i	6.1	-2.9	1.4	CCOC(=O)c1ccc(NC(=O)c2cccc(C)c2[N+](=O)[O-])cc1
nt	0.79	0	nt	3.0	0.0	1.5	Cc1ccc(C(=O)Nc2c(C#N)c(C)c(C)n2Cc2ccccc2)cc1
0	0.71	3	i	-1.9	3.1	-0.3	O=C(CSc1nnnn1-c1ccccc1)Nc1ncc(Cc2ccccc2Cl)s1
21	nt	0	i	-1.8	0.7	nt	COc1ccc(CCNC(=O)CS(=O)(=O)Cc2nc(-c3ccc(C)cc3)oc2C)cc1OC
1	0.63	1	nt	-1.7	-4.8	2.2	CC(=O)c1c(C)[nH]c(C(=O)OC(C)C(=O)Nc2cc(S(=O)(=O)N3CCCCC3)ccc2Cl)c1C (centres undefined)
-8	0.69	-5	i	2.1	0.6	0.4	Cc1cccc(C)c1OCCSc1nc2ccccc2n1CC(=O)O
